Screening data as filed in PubChem.
VCAM-1 imaging – suppression of endothelial VCAM-1 upregulation – imaging, high-content imaging, pooled HUVEC, TNFa stimulus (AID 456) | HUVEC TNFa-induced VCAM-1 surface expression, immunofluorescence imaging; numbers were filed only for top-ranked candidate wells | one-dose inhibition, % at 5 µM; IC50 in µM for titrated hits | actives 0.2% (n = 10,000);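 active = top tenth filtered wells with inhibition above zero that passed visual or statistical confirmation; inactive = the rest, including hits rejected on review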;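 note: 0% = stimulated vehicle wells and 100% = unstimulated cells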
FPRL1 binder – binds the human formylpeptide receptor-like-1 FPRL1; P25090; FPRL1-expressing cells, fluorescent ligand binding inhibition, flow cytometry; inhibition, %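 (tested at 6.7 µM)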; actives 0.3% (n = 24,000); AID 441;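 note: 0% = buffer alone and 100% = receptor blocker peptide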
Target sequence (P25090 whole entry, looked up): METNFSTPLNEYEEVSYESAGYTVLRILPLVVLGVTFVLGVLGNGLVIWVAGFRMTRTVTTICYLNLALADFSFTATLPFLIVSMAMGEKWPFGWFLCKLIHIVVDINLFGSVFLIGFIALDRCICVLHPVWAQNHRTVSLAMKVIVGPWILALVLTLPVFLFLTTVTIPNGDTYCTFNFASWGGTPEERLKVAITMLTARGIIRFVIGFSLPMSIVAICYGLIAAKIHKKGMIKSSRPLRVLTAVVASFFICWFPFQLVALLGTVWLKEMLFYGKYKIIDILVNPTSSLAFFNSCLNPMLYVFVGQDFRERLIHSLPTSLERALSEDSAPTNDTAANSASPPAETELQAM
VCAM-1 up imaging – enhancers of VCAM-1 display on endothelial cells, imaging, high-content imaging, pooled HUVEC, TNFa stimulus (AID 457); calls only; Pooled HUVEC, TNFa-induced VCAM-1 immunofluorescence imaging; hits of this screen are not shown here; actives 0.2% (n = 10,000);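 active = a top-ranked rise in VCAM-1 staining upheld on image or statistical review; inactive = the rest, including candidates rejected on review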;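 note: compounds tested at 5 µM in the well; cells exposed to compound for 24 hours before fixing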
VCAM-1 down – inhibitors of TNFa-induced VCAM-1 surface display, cell-based, plate reader, pooled HUVEC, TNFa stimulus (AID 454) | inhibition, % at 5 µM | HUVEC TNFa-induced VCAM-1 surface immunofluorescence, plate reader; numbers were filed only for top-ranked candidate wells | actives 0.2% (n = 10,000);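 active = compound among top-ranked inhibitors of TNF-induced VCAM-1 adhesion protein staining, with the hit upheld by image or statistical review; inactive = the rest, including hits rejected on review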;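 note: 0% = TNFa with vehicle and 100% = cells without TNFa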
FPR binder – ligands of human FPR, also counter-screen for FPRL1 ligands; P21462; FPR-expressing cells, fluorescent ligand binding, flow cytometry; inhibition, %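 (tested at 6.7 µM)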; actives 0.74% (n = 24,000); AID 440;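 note: 0% = buffer wells and 100% = receptor blocker peptide wells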
Target sequence (P21462 whole entry, looked up): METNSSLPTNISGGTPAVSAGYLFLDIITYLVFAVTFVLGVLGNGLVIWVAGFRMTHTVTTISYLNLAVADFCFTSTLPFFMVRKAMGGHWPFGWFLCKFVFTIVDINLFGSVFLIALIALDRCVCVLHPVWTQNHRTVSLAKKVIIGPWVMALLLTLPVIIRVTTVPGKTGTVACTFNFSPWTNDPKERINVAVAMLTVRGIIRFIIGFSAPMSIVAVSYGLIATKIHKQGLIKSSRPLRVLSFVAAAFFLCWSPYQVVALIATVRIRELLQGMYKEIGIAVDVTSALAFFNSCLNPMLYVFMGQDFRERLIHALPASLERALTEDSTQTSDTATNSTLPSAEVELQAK
* marks the source's active call; other numbers are inactive results; i = inactive; / = no result given.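 Rule for the calls, unless noted: active = mean above 30%; inconclusive = self-fluorescent; inactive = the rest.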 The list is partial; rates above refer to the full screens.

#	Compound	VCAM-1 imaging	FPRL1 binder	VCAM-1 up imaging	VCAM-1 down	FPR binder
1	COc1ccc(N2CCN(c3ncnc4c3cnn4-c3ccc(C)cc3C)CC2)cc1	i	-7	i	i	-11
2	CCOC(=O)N1CCN(C(=O)CSc2nnc(-c3ccc(C(C)(C)C)cc3)o2)CC1	/	-4	/	/	2
3	CCC(C)(C)NC(=O)CC(c1ccc(OC)cc1)n1cccc1 (configuration not stated)	/	-2	/	/	-3
4	O=C(CN1C(=O)C2C3C=CC(C3)C2C1=O)NCCc1ccccc1 (configuration not stated)	/	-1	/	/	1
5	O=C(O)C1CCN(S(=O)(=O)c2cccnc2)CC1	/	4	/	/	4
6	Cn1c2ccccc2c2c(C(=O)NCc3ccco3)cn(C3CCCCC3)c(=O)c21	/	8	/	/	14
7	COC(=O)C1C2C=CC3(CN(CC4CCCO4)C(=O)C13)O2 (configuration not stated)	i	4	i	i	0
8	O=C(CC1Oc2ccccc2NC1=O)NCc1ccc(Cl)cc1 (configuration not stated)	/	0	/	/	-3
9	Fc1cccc2sc(Nc3nnc(-c4ccccc4)o3)nc12	/	4	/	/	2
10	Cc1ccc(C)c(S(=O)(=O)NC(CC(C)C)C(=O)O)c1 (configuration not stated)	/	4	/	/	9
11	CC(C)(C)NC(=O)c1sccc1C(=O)O	/	0	/	/	0
12	CCCS(=O)(=O)N1CCN(Cc2ccc(OCc3ccccc3)c(OC)c2)CC1	i	-2	i	i	-2
13	Cn1c(=O)n(Cc2ccc(F)cc2)c(=O)c2c1nc1n2CCCN1Cc1ccccc1	i	-1	i	i	4
14	COc1ccccc1N(CC(=O)NC1CCCC1)C(=O)CCC(=O)Nc1cc(C)on1	i	7	i	i	-4
15	O=C(Nc1ccccc1)N1CCCN(Cc2ccccc2F)C1	/	-2	/	/	-6
16	CCSc1nc2ccccc2n1CCC(=O)O	i	-3	i	i	-4
17	Cc1csc2ncc(C(=O)NCc3ccco3)c(=O)n12	/	-2	/	/	-1
18	CCOC(=O)N1CCN(C(=O)C(C)(C)Oc2ccc(Cl)cc2)CC1	/	3	/	/	8
19	COc1ccc(-c2csc(N3CCN(C(=O)c4ccco4)CC3)n2)cc1	/	-4	/	/	-2
20	Cc1cccc(-n2ncc3c(NCc4ccccn4)ncnc32)c1	i	8	i	i	2
21	O=C(NCC1CCCO1)c1ccc(N2CCCCC2)nc1 (configuration not stated)	i	-3	i	i	1
22	CC(C)OCCCNC(=O)c1cc2c(s1)CS(=O)(=O)C2	i	-3	i	i	-1
23	COc1ccc(-n2ncc3c(NCCCN4CCOCC4)ncnc32)cc1	i	1	i	i	0
24	COC(=O)Cn1ncc2c(C)n(Cc3ccccc3)c(C)c2c1=O	i	3	i	i	9
25	Cc1ccc2c(c1)c1c(n2CC(O)CN2C(=O)CNC2=O)C(=O)CCC1 (configuration not stated)	/	-9	/	/	-12
26	COCCNC(=O)CS(=O)Cc1nc(-c2ccc(OC)cc2)oc1C (configuration not stated)	/	1	/	/	-2
27	Cc1ccc2c(c1)-c1c(cnn1CC(=O)O)CO2	/	-4	/	/	-2
28	O=S(=O)(NCc1cn2ccsc2n1)c1ccc(Oc2ccccc2)cc1	/	-5	/	/	-4
29	CCOc1ccccc1NC(=O)CN(C)S(=O)(=O)c1cccc2nsnc12	i	-2	i	i	-5
30	CC(C)C1N=C2c3ccccc3N=C(SCc3cc(=O)n4ccccc4n3)N2C1=O (configuration not stated)	i	2	i	i	-9
31	Cc1cc(C(F)(F)F)nn1-c1nc(-c2ccco2)cc(C(F)(F)F)n1	/	7	/	/	-6
32	Cc1ccsc1C(C(=O)NC1CCCCC1)N(C(=O)Cc1cccs1)C1CC1 (configuration not stated)	i	0	i	i	10
33	COC(=O)c1ccc2c(=O)n(Cc3ccco3)c(SCC(=O)Nc3ccccc3Cl)nc2c1	/	-5	/	/	2
34	CCc1ccc(NC(=O)c2cc(C(C)C)on2)cc1	/	3	/	/	2
35	CCOc1ccccc1NC(=O)c1ccc(F)c(S(=O)(=O)N2CCC3(CC2)OCCO3)c1	/	-5	/	/	0
36	COc1ccc(N(CC(=O)Nc2ccc3c(c2)OCCO3)S(=O)(=O)c2c(C)noc2C)cc1	/	-3	/	/	-2
37	CC(=O)C1C(c2ccccc2OC(F)F)NC(=O)NC1(O)C(F)(F)F (configuration not stated)	/	1	/	/	8
38	Cc1oc(-c2ccc(Cl)cc2)nc1CN1CCC(C(=O)NCCCN2CCOCC2)CC1	/	-4	/	/	4
39	CC(C)Cn1c(CNC(=O)c2ccccc2)nc2ccccc21	/	9	/	/	11
40	CC(C)Cc1nnc(NC(=O)CCC(=O)N2CCOCC2)s1	i	5	i	i	-4
41	Cc1ccc(-n2c(C)cc3c2CCCC3=O)cc1	i	-2	i	i	-2
42	CCc1ccccc1NC(=O)CSc1nc2n[nH]c(C)c2c(=N)n1-c1ccc(OC)cc1	i	1	i	i	4
43	O=C(NCC1CCCO1)c1cc2c(s1)CS(=O)(=O)C2 (configuration not stated)	/	-2	/	/	-3
44	COc1ccc(S(=O)(=O)N2CCN(CC(=O)Nc3cc(C(F)(F)F)ccc3Cl)CC2)cc1	/	-4	/	/	-3
45	CCOC(=O)c1nnn(-c2nonc2N)c1COc1cc(C)c(Cl)c(C)c1	/	3	/	/	-4
46	COc1cc2nc(NCCN3CCOCC3)n3nc(-c4ccccc4)nc3c2cc1OC	/	3	/	/	4
47	COc1ccc(-c2noc(CN3CCC(Cc4ccccc4)CC3)n2)cc1	i	6	i	i	-5
48	Cc1ccc(N=Cc2ccc[nH]2)c(O)c1	i	-8	i	i	-1
49	O=C(c1ccc(CS(=O)(=O)c2ccc(Br)cc2)o1)N1CCN(c2ncccn2)CC1	/	3	/	/	6
50	CCOC(=O)N1CCN(c2c(Nc3ccc4c(c3)OCCO4)c(=O)c2=O)CC1	/	-1	/	/	0
51	COc1ccc(Nc2ncc3c(n2)CC(c2ccc(OC)cc2)CC3=O)cc1 (configuration not stated)	i	-2	i	i	-6
52	CC(C)C(c1nnnn1C1CCCC1)N1CCCc2ccccc21 (configuration not stated)	i	-3	i	i	-4
53	Cc1cc(C)n(C(=O)c2cc3ccccc3c(=O)o2)n1	/	-2	/	/	-4
54	COc1ccc2[nH]c(C)c(CCN3C(=O)OC(C)(C)C3(C)O)c2c1 (configuration not stated)	i	-1	i	i	-2
55	COc1ccc(N2C(=O)C3CCCN3C2c2cccc(Br)c2)cc1 (configuration not stated)	/	-3	/	/	-3
56	CCCOc1ccc(C(=O)Nn2c(C)nc3ccccc3c2=O)cc1	/	0	/	/	6
57	c1c2c(cc3sc(N4CCOCC4)nc13)OCO2	/	-2	/	/	1
58	Cc1cc(NCc2ccc3c(c2)OCO3)n2nc(C)nc2n1	/	3	/	/	2
59	O=C(O)c1cccc(CN2C(=O)SC(Nc3ccccc3)C2=O)c1 (configuration not stated)	i	-1	i	i	-2
60	COc1cc(C(=O)NCc2nnc(SCC(=O)N3CCCCC3)o2)cc(OC)c1OC	/	9	/	/	11

(next part)
#	Compound	VCAM-1 imaging	FPRL1 binder	VCAM-1 up imaging	VCAM-1 down	FPR binder
61	CCOC(=O)C1=C(N2CCCCC2)c2cc3c(n2C1=O)CCCC3	/	6	/	/	19
62	CCOc1ccc(CCNC(=O)c2oc3c(c2C)-c2[nH]ncc2CC3)cc1OCC	/	1	/	/	2
63	CC(C)N1C(=O)CN(C2CCCCCC2)C(=O)C1c1ccccc1F (configuration not stated)	/	-1	/	/	3
64	CC1CCN(S(=O)(=O)c2ccc3c(c2)CCN3C(=O)CCC(=O)O)CC1	/	-2	/	/	0
65	O=C(NCc1ccc2c(c1)OCO2)C1CCCN(S(=O)(=O)c2cccc3cccnc23)C1 (configuration not stated)	i	-2	i	i	-1
66	OC(COc1ccc(OCC(O)CN2CCCCCC2)cc1)CN1CCCCCC1 (configuration not stated)	/	-1	/	/	4
67	Cc1ccc(NC(=O)CCN2CCc3ccccc3C2)cc1	i	-3	i	i	16
68	COc1ccc(CCn2c(N)c(C#N)c3nc4ccccc4nc32)cc1OC	i	-4	i	i	6
69	COc1ccc2c(c1)n([O-])c1c([n+]2=O)CCC1	i	3	i	i	-7
70	CCOC(=O)C(C)Sc1nc2c(cnn2-c2ccc(C)cc2)c(=O)[nH]1 (configuration not stated)	i	3	i	i	6
71	CCC(=O)N1CCc2cc(S(=O)(=O)CCC(=O)NCCc3ccc(OC)c(OC)c3)ccc21	/	2	/	/	2
72	O=C(CC1CCCCC1)Nc1c2c(nn1-c1ccc(F)cc1)CS(=O)(=O)C2	/	-10	/	/	6
73	CCn1cc(C(=O)Nc2ccccc2C(=O)OC)c(=O)c2ccc(C)nc21	/	-3	/	/	1
74	CN1C(=O)/C(=C2\SC(=S)N(CC3CCCO3)C2=O)c2ccccc21 (configuration not stated)	/	0	/	/	-2
75	CCOCCCNC(=O)CCNC(=O)c1cc(OC)c(OC)c(OC)c1	/	-2	/	/	1
76	Cc1cc2c(c(SCC(=O)N(C)c3ccccc3)n1)C(=O)OC2	/	-3	/	/	0
77	Cn1c(N)c(C(=O)NCc2ccccc2)sc1=S	/	-13	/	/	-11
78	COc1ccc(N(CC(=O)Nc2cc(C)ccc2OC)S(=O)(=O)c2c(C)noc2C)cc1	/	5	/	/	-4
79	Cc1oc(-c2cccs2)nc1CS(=O)CC(=O)NCCc1ccccc1 (configuration not stated)	/	1	/	/	5
80	C=CCn1c(Cc2csc(N)n2)nnc1SCC(=O)OCC	i	4	i	i	-11

Rewritten in transposed form: part of the list above
69: COc1ccc2c(c1)n([O-])c1c([n+]2=O)CCC1
70: CCOC(=O)C(C)Sc1nc2c(cnn2-c2ccc(C)cc2)c(=O)[nH]1 (configuration not stated)
71: CCC(=O)N1CCc2cc(S(=O)(=O)CCC(=O)NCCc3ccc(OC)c(OC)c3)ccc21
entry no. | 69 | 70 | 71
VCAM-1 imaging | i | i | /
FPRL1 binder | 3 | 3 | 2
VCAM-1 up imaging | i | i | /
VCAM-1 down | i | i | /
FPR binder | -7 | 6 | 2

Later entries:
#	Compound	VCAM-1 imaging	FPRL1 binder	VCAM-1 up imaging	VCAM-1 down	FPR binder
81	CCCCN(C)CCNC(=O)c1c[nH]c2ccc(S(=O)(=O)N(CC)CC)cc2c1=O	/	3	/	/	-1
82	O=C(NCC(=O)N(c1cccnc1)C(C(=O)NC1CCCCC1)c1cccnc1)c1ccco1 (configuration not stated)	i	-7	i	i	-6
83	CCOC(=O)CC(NS(=O)(=O)c1ccc(NC(C)=O)cc1)c1ccc(OCC)cc1 (configuration not stated)	i	2	i	i	-1
84	Cc1ccc(-c2nc(C3CCN(S(=O)(=O)c4ccc(C(F)(F)F)cc4)CC3)no2)cc1	/	0	/	/	-6
85	CCCN1C(=O)c2cc(C(=O)Nc3ccccc3CC)ccc2C1O (configuration not stated)	/	0	/	/	1
86	CCOC(=O)CNc1ccc2c(c1)OCO2	i	-3	i	i	3
87	O=C(NCc1nnc(SCC(=O)N2CCC(Cc3ccccc3)CC2)o1)c1ccccc1F	i	-3	i	i	3
88	Cc1ccccc1CNS(=O)(=O)c1ccc2c(c1)OCCO2	i	-6	i	i	-7
89	NS(=O)(=O)c1ccc(CCNC(=O)CNC(=O)C2CCCCC2)cc1	/	0	/	/	0
90	COC(=O)c1ccccc1NC(=O)Cn1c(-c2nonc2N)nc2ccccc21	i	8	i	i	-3
91	COc1cccc(OC)c1C(=O)N1CCN(S(=O)(=O)c2ccc(C)cc2)CC1	i	-3	i	i	0
92	Cc1ccccc1NC(=O)Cn1cnc2c(oc3ccccc32)c1=O	/	0	/	/	-1
93	O=C(Nc1cccs1)NC1CCCC1	/	6	/	/	-6
94	CCC(C)NC(=O)C1CC(c2ccc(OC)cc2)=NO1 (configuration not stated)	/	-6	/	/	-3
95	Cc1cc(=O)n2nc(N3CCC(C(=O)NC4CCCc5ccccc54)CC3)sc2n1 (configuration not stated)	/	-15	/	/	2
96	O=C(COc1ccc(S(=O)(=O)N2CCCC2)cc1Cl)NC1CC1	i	1	i	i	3
97	CCc1ccc(-n2c(O)cnc2Nc2nc(C)cc(C)n2)cc1	/	1	/	/	1
98	Cc1cccc(NC(=O)c2ccccc2O)c1C	i	10	i	i	8
99	Cc1ccc(CCNC(=O)C2CCN(S(=O)(=O)c3cccc4nsnc34)CC2)cc1	i	2	i	i	-5
100	CN1C(=O)CSc2ccc(NC(=O)Nc3ccccn3)cc21	/	3	/	/	-12
101	CN(CCc1ccccn1)S(=O)(=O)c1ccc(F)cc1	/	-2	/	/	0
102	CCOC(=O)c1c(C)n(C)c2ccc(OC)c(NC(=O)CCN3CCSCC3)c12	i	4	i	i	5
103	COc1ccc(-n2cnnc2SCCC#N)cc1	i	4	i	i	2
